# gsp antag: antagonists of gsp mutant (McCune-Albright syndrome); gsp-mutant cells, cAMP HTRF, 30 min; control for the full effect not named in the record; actives 0.4% (n = 340,000); Potency, µM (titrated, usually from 76.9 µM), for inactives: top-dose activity change, negative = inhibition, actives largely listed as inhibitors; active = falling curve of any shape with a large fitted effect; inconclusive = falling curve, mostly with a smaller effect; inactive = flat or rising curve; cell line not stated here;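 also: intracellular cAMP measured with PDE inhibitor Ro 20-1724 present during compound exposure; potency is read from the fitted curve at half-maximal effect; % is scaled to controls: 0 for no effect and ±100 for the full control effect; nearly all actives have a fitted effect of over 65% in size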
#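 Measurement of cellular cAMP by homogeneous time-resolved fluorescence following a 30 min compound exposure at 37C. The PDE inhibitor […] was present throughout; the assay buffer was DPBS with 0.05% BSA and 0.005% Tween 20.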
# CtBP-E1A inh: inhibitors of CtBP/E1A interaction. actives 0.49% (n = 340,000). AlphaScreen GST-E1A/His-CtBP binding, 1536-well; active compounds read low; control for the full effect not named in the record. activity change, % (no concentration beside the values); in the data active means activity change below about -65%; inconclusive means about -30% to -65%; inactive means above about -30%; also: % is scaled to controls: 0 for no effect and ±100 for the full control effect
#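 Homogeneous bead-based format: GST-tagged E1A captured on glutathione donor beads, His-tagged CtBP on nickel acceptor beads; compounds precede bead addition by 2 h at 37 °C.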
# Six1-Eya2 inh: Six1/Eya2 interaction inhibition | Q15475+O00167 | AlphaScreen GST-Six1/His-Eya2 binding, biochemical; active compounds read low; control for the full effect not named in the record | activity change, % (no concentration beside the values) | actives 0.56% (n = 360,000); in the data active = activity change below about -65%; inconclusive = about -30% to -65%; inactive = above about -30%; also: % is scaled to controls: 0 for no effect and ±100 for the full control effect
# Target sequence (O00167 whole entry, looked up): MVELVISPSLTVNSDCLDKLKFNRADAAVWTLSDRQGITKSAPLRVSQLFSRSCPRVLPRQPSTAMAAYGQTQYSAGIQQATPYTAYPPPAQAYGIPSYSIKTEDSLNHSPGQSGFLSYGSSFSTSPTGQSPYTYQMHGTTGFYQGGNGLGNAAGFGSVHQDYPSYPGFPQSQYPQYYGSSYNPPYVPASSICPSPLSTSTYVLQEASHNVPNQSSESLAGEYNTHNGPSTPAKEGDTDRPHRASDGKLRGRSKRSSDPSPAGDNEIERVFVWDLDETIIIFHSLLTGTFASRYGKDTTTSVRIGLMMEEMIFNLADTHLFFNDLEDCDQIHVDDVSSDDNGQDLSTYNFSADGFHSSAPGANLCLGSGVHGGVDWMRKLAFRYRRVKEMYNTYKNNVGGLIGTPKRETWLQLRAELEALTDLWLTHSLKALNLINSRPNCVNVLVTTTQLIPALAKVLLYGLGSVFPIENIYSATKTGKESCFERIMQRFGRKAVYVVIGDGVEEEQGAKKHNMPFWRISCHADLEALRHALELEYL
# Target sequence (Q15475 whole entry, looked up): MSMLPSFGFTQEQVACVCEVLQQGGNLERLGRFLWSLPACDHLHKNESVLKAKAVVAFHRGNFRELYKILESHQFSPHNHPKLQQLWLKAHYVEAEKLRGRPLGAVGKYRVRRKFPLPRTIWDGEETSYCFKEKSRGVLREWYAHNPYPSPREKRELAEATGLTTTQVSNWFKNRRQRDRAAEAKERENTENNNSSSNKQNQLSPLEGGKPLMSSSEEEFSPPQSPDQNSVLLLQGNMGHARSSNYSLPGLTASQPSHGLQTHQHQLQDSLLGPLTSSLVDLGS
#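 GST-Six1 + His-Eya2 (5X stock: 250/500 nM); Tris pH 8.0, 300 mM NaCl, 0.05% BSA, 0.02% Tween 20; GSH donor/Ni acceptor beads; 1 h 37 °C dark; AlphaScreen readout.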
# D2 PAM: potentiates the human D2 dopamine receptor allosterically; potentiation, % (no concentration beside the values); DiscoveRx D2 beta-arrestin cells, luminescence, 90 min; 100% = 57 uM dopamine signal; P14416; actives 0.23% (n = 360,000); active = potentiation of 50% or more; inconclusive = 30% to 50%; inactive = 30% or less;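 also: compound concentration not given in the record; tested on top of an EC20 dose of dopamine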
#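 PathHunter D2 cells, attached overnight at 37 deg C, received compound in DMSO plus dopamine at EC20 (50 nM final) for 90 min at 37 deg C. Beta-arrestin recruitment was read as luminescence after 1 h with detection reagent at ambient temperature.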
# D2 agonist: agonists of human D2 dopamine receptor (beta-arrestin). P14416. activation, % (concentration not given with the values). actives 0.084% (n = 360,000). AID 624465. DiscoveRx PathHunter D2 beta-arrestin, luminescence, 90 min; 100% = 57 uM dopamine signal; in the data active = activation above about 40%; inconclusive = about 15% to 40%; inactive = below about 15%; also: compound concentration not given in the record; the text of the record calls up to 30% inactive
#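 Agonist mode: compounds alone added to overnight-plated D2 PathHunter cells for 90 min at 37 C, with 57 uM final dopamine (EC100) defining full response. Beta-arrestin recruitment detected by chemiluminescent reagent, read after 1 h at ambient temperature.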
# gsp ag: gsp mutant agonism; gsp mutant cells, cAMP HTRF, 30 min; control for the full effect not named in the record; Potency, µM (doses to about 76.9 µM), inactives show at the highest dose activation (cAMP increase), hits mostly activators; actives 0.13% (n = 340,000); active = well fitted activation curve with a large enough effect; inconclusive = small, poorly fitted or top-dose-only effect, or another doubt; inactive = no such curve, though single readings can be large or run the other way; cell line not stated here;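 also: phosphodiesterase inhibitor Ro 20-1724 added with compounds to block cAMP breakdown; potency is read from the fitted curve at half-maximal effect; nearly all actives have a fitted effect of over 60% in size; about a fifth of the inactives were tested at one dose only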
#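 Cells in DMEM/10% FBS with G418 were pretreated with compounds in DMSO plus […] (300 uM stock) for 30 min at 37C. cAMP was measured by HTRF (cAMP-d2 plus anti-cAMP antibody-K) after 30 min at room temperature.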
# * marks the source's active call; other numbers are inactive results; ? = inconclusive; . = not tested or not shown; [ ] = dose if it differs, or a comment.
[1] N#Cc1ccccc1OCC(=O)NCc1ccccc1CN1CCCC1
[2] COCCCC1CCN(C(=O)C2CCC(=O)N(CC3CCCCC3)C2)CC1 (configuration not stated)
[3] O=S(=O)(c1cccc2nonc12)N1CCN(c2cccc(Cl)c2)CC1
[4] COc1ccc(/C=C\C(=O)Oc2cccc(/C=N/NC(=O)Cc3ccc(OC)c(OC)c3)c2)cc1
[5] COc1ccc(-c2noc(CSc3ccccc3)n2)cc1OC
assay / entry	1	2	3	4	5
gsp ag	?	1%	-44%[inhibitor]	-5%	9%
CtBP-E1A inh	-12	10	-15	1	24
D2 PAM	-19	22	-5	18	-4
Six1-Eya2 inh	8	0	?	-22	20
gsp antag	3%	3%	-15%	-12%	4%
D2 agonist	-4.4	-1.4	2.4	7.7	1.9

[6] CCCCCNC(=O)C(C)NS(=O)(=O)c1ccc(OC)cc1 (configuration not stated)
[7] Cc1ccc2cc(C#N)c(N3CCN(C)CC3)nc2c1
[8] CCN(CC(=O)Nc1ccc2c(c1)OCCO2)C(=O)c1cc(S(=O)(=O)N2CCOCC2)ccc1F
[9] COc1ccccc1C(CNC(=O)CNC(=O)c1cccc(Cl)c1)N1CCCC1 (configuration not stated)
[10] COc1cccc(C2C(C#N)=C(N)N(N(C)C)C3=C2C(=O)CCC3)c1OC (configuration not stated)
assay / entry	6	7	8	9	10
gsp ag	-12%	7%	9%	22%[15.4 µM]	5%
CtBP-E1A inh	-1	-3	4	1	4
D2 PAM	-23	-32	19	-5	-9
Six1-Eya2 inh	-12	6	0	7	-1
gsp antag	5%	10%	1%	16%	-13%
D2 agonist	-4.0	-1.3	1.5	-4.0	-2.1

[11] C=CCNC(=O)/C=C/c1cccs1
[12] CCC/C(O)=C1\C(=O)CC(C)(C)CC1=Nc1ccccc1O
[13] O=C(Cc1cccc([N+](=O)[O-])c1)Nc1ccccc1
[14] O=C1CN=CN=CN1c1ccc(Cl)cc1Cl
[15] Cc1ccc(C2CC(=O)c3cnc(N4CCN(c5ccccc5)CC4)nc3C2)cc1 (configuration not stated)
assay / entry	11	12	13	14	15
gsp ag	7%[15.4 µM]	-3%[15.4 µM]	-9%	-74%[inhibitor]	-41%[inhibitor]
CtBP-E1A inh	5	-3	-6	.	4
D2 PAM	-6	-17	-5	-4	-3
Six1-Eya2 inh	-5	-2	2	-3	7
gsp antag	7%	-8%	.	7%	-4%
D2 agonist	-3.2	-0.3	-7.2	-4.0	0.4

[16] COc1ccc(-c2nn(-c3ccccc3)cc2C(=O)N(C)CC(=O)Nc2ccccc2Br)cc1
[17] Cc1ccc(SCc2[nH]nc3c2C(c2cccnc2)C(C#N)=C(N)O3)cc1 (configuration not stated)
[18] COC(=O)c1ccccc1S(=O)(=O)NCc1nc2nc(C)cc(C)n2n1
[19] CN(Cc1nc(-c2ccc(Cl)cc2)no1)C(=O)CCN1C(=O)[C@H]2CC=CC[C@H]2C1=O
[20] O=C1C(Cl)=C(N2CCCC2)C(=O)N1c1ccc(F)cc1
assay / entry	16	17	18	19	20
gsp ag	-22%	-29%	-10%	2%	7%[15.4 µM]
CtBP-E1A inh	-5	6	2	8	1
D2 PAM	-3	-15	0	0	-36
Six1-Eya2 inh	-4	-2	2	1	1
gsp antag	?	-13%	11%	1%	-38%
D2 agonist	-4.0	3.2	-1.2	2.6	-4.5

# Reformatted with values under each structure: entries from further up
# Results follow in this order: gsp ag | CtBP-E1A inh | D2 PAM | Six1-Eya2 inh | gsp antag | D2 agonist
17	Cc1ccc(SCc2[nH]nc3c2C(c2cccnc2)C(C#N)=C(N)O3)cc1 (configuration not stated)
  -29% | 6 | -15 | -2 | -13% | 3.2
20	O=C1C(Cl)=C(N2CCCC2)C(=O)N1c1ccc(F)cc1
  7%[15.4 µM] | 1 | -36 | 1 | -38% | -4.5
16	COc1ccc(-c2nn(-c3ccccc3)cc2C(=O)N(C)CC(=O)Nc2ccccc2Br)cc1
  -22% | -5 | -3 | -4 | ? | -4.0
18	COC(=O)c1ccccc1S(=O)(=O)NCc1nc2nc(C)cc(C)n2n1
  -10% | 2 | 0 | 2 | 11% | -1.2

# The list goes on:
[21] CSC1SCC2C(=O)N(C)C(C(C)C)C(=O)OCC(NC(=O)c3cnc4ccccc4n3)C(=O)NC(C)C(=O)N(C)C1C(=O)N(C)C(C(C)C)C(=O)OCC(NC(=O)c1cnc3ccccc3n1)C(=O)NC(C)C(=O)N2C (configuration not stated)
[22] O=C(CN1C(=O)NC2(CCCCC2)C1=O)N1CCN(S(=O)(=O)c2ccc(F)c(F)c2F)CC1
[23] Cc1cc(=O)[nH]c(-n2nc(C)c(Oc3ccccc3O)c2C)n1
[24] CC(=O)Nc1cccc(-c2ccnc3c2CC(C)(C(=O)Nc2ccc4c(c2)OCO4)O3)c1 (configuration not stated)
[25] CN(C)C(=O)N1CCCC(C(=O)NCc2ccc(F)cc2Cl)C1 (configuration not stated)
assay / entry	21	22	23	24	25
gsp ag	14%	-46%[inhibitor]	6%	.	-24%
CtBP-E1A inh	1	12	-4	-7	8
D2 PAM	8	8	2	-4	-1
Six1-Eya2 inh	-15	14	-4	1	0
gsp antag	-3%	5%	-4%	.	5%
D2 agonist	4.7	4.5	1.1	3.5	-4.8

[26] CCN1CCN(C(=O)c2cc(-c3ccc(Cl)s3)nc3ccccc23)CC1
[27] Cc1ccc(Sc2ccc(/C=C3/C(=O)NN(c4ccccc4)C3=O)o2)cc1
[28] C[C@H](NC(=O)c1nc[nH]c1C(=O)N[C@H](C)c1ccccc1)C(=O)OC(C)(C)C
[29] CC(=O)Nc1cccc(NC(=S)Nc2cccc(Cl)c2C)c1
[30] COCCn1c(C)cc(C(=O)COC(=O)c2ccc3c(c2)NC(=O)CS3)c1C
assay / entry	26	27	28	29	30
gsp ag	?	-43%[inhibitor]	.	2%	0%
CtBP-E1A inh	-1	.	6	.	-10
D2 PAM	6	-3	-2	-6	-17
Six1-Eya2 inh	-3	1	0	13	-14
gsp antag	7%	8%	-2%	-4%	-2%
D2 agonist	2.4	-2.1	0.6	-2.5	-0.2

# Full records, looked up by structure:
# Shown for C[C@H](NC(=O)c1nc[nH]c1C(=O)N[C@H](C)c1ccccc1)C(=O)OC(C)(C)C : gsp ag = .; CtBP-E1A inh = 6; D2 PAM = -2; Six1-Eya2 inh = 0; gsp antag = -2%; D2 agonist = 0.6
# Shown for CC(=O)Nc1cccc(NC(=S)Nc2cccc(Cl)c2C)c1 : gsp ag = 2%; CtBP-E1A inh = .; D2 PAM = -6; Six1-Eya2 inh = 13; gsp antag = -4%; D2 agonist = -2.5

# Going on with the list:
[31] CCc1noc(C)c1C(=O)OCC(=O)NC(=O)c1ccccc1
[32] CC1(C)CCN2CCC(C)(C)c3c(O)ccc1c32
[33] CC(C)(CNC(=O)c1cc(=O)[nH]c2ccccc12)N1CCOCC1
[34] COCCNC(=O)c1ccc(C(=O)NCCOC)s1
[35] Cc1c2cnn(CC(=O)NCCN3CCOCC3)c(=O)c2c(C)n1Cc1ccccc1
assay / entry	31	32	33	34	35
gsp ag	-17%	-24%	-59%[inhibitor]	15%	?
CtBP-E1A inh	-1	-17	7	3	-4
D2 PAM	2	2	13	-12	-5
Six1-Eya2 inh	2	-22	0	3	2
gsp antag	0%	4%	-1%	4%	5%
D2 agonist	-5.4	4.0	-1.3	-0.2	-4.4

[36] Cc1cc(C(=O)Nc2ccccc2Cl)c2ccccc2n1
[37] CCn1cc(CN2CCN(CC(C)(C)C)C(CCO)C2)c2ccccc21 (configuration not stated)
[38] CCCCOC(=O)Nc1nnc(COc2ccccc2)s1
[39] CCOC(=O)c1c(-c2ccc(OC)cc2)csc1NC(=O)C1CCCO1 (configuration not stated)
[40] COC1=CC(=O)[C@@]2([C@@H]1O)[C@@H](Cl)C[C@]13C(OC)=C(OC)C(=O)C[C@]21CCN3C
assay / entry	36	37	38	39	40
gsp ag	4%[15.4 µM]	12%	-17%	-109%[inhibitor]	-24%
CtBP-E1A inh	4	.	0	0	4
D2 PAM	-9	-42	-13	3	-1
Six1-Eya2 inh	-9	-4	4	4	11
gsp antag	-6%	0%	6%	-25%	10%
D2 agonist	0.0	-3.0	-0.9	0.4	-6.3

[41] CCn1cc(/C=C(\NC(=O)c2ccccc2OC)C(=O)NCCCN2CCOCC2)c2ccccc21
[42] c1n[nH]c(SCCCCSc2ncn[nH]2)n1
[43] CN(Cc1nc(-c2ccncc2)no1)S(=O)(=O)c1ccccc1
[44] CC(C(=O)N1CCOCC1)N1C(=O)c2cccc3cccc(c23)C1=O (configuration not stated)
[45] O=C(CCc1ccncc1)N1CCCC(Nc2ccc(F)c(F)c2)C1 (configuration not stated)
assay / entry	41	42	43	44	45
gsp ag	26%	-9%	0%	6%	-20%
CtBP-E1A inh	-2	-2	11	.	.
D2 PAM	-10	-12	3	-1	-16
Six1-Eya2 inh	-2	-1	13	4	8
gsp antag	0%	3%	4%	13%	-1%
D2 agonist	-2.4	-2.2	-0.9	6.3	-2.0

[46] O=[N+]([O-])c1ccc(OCC(O)CNC2CCCC2)cc1 (configuration not stated)
[47] Cc1cccc(N(C(=O)CCC(=O)Nc2nccs2)C(C(=O)NC(C)(C)C)c2ccc(O)cc2)c1 (configuration not stated)
[48] COc1ccc(-c2cnn3c(N)c(S(=O)(=O)c4ccccc4)cnc23)cc1
[49] CCOC(=O)C1CCCN(C(=O)c2cn(C)c3ccc(S(=O)(=O)N(C)C)cc3c2=O)C1 (configuration not stated)
[50] CCC1=NN(C(=O)Cc2ccc([N+](=O)[O-])cc2)C(O)(c2ccncc2)C1 (configuration not stated)
assay / entry	46	47	48	49	50
gsp ag	-36%[inhibitor]	17%	?	0%	-1%[15.4 µM]
CtBP-E1A inh	5	0	-4	-6	5
D2 PAM	-6	2	9	-2	-9
Six1-Eya2 inh	15	6	-19	8	-2
gsp antag	11%	4%	-11%	7%	7%
D2 agonist	-7.0	3.5	-2.5	-4.1	-3.6

[51] O=[N+]([O-])c1ccc(-c2cn(-c3ccc(Cl)cc3)c(=S)[nH]2)cc1
[52] Cc1cccc(NC(=O)C2CCCN(S(=O)(=O)c3cccc4nonc34)C2)c1 (configuration not stated)
[53] CCCCN(C(=O)CSc1nncn1-c1ccccc1)c1c(N)n(Cc2ccccc2)c(=O)[nH]c1=O
[54] CCN(CC)c1nc(SCC(=O)O)nc(N(CC)CC)n1
[55] CN(C/C=C/c1ccccc1)Cc1cccc2ccccc12
[56] Cc1ccc(C)c(SCC(=O)N(C)CC(=O)Nc2ccc(N3CCOCC3)cc2)c1
assay / entry	51	52	53	54	55	56
gsp ag	7%	?	?	26%	.	-9%[15.4 µM]
CtBP-E1A inh	0	-1	.	48	26	1
D2 PAM	-7	2	-8	-12	-26	-18
Six1-Eya2 inh	0	2	-2	0	5	-7
gsp antag	-2%	2%	-15%	-12%	-13%	-24%
D2 agonist	-2.5	3.5	-3.6	-3.8	2.7	-3.2
